Screening results: PubChem BioAssay, several laboratories
ugtP null kill = kills S. aureus RN4220 lacking UgtP; S. aureus RN4220 ugtP deletion, OD600 growth, 16 h; some inactives read as strong as hits; growth inhibition, % (no concentration beside the values); hit rate 0.54% among 330,000;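 active = z-score under -3 and OD600 up to 0.15 on both plates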;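 note: plate controls were untreated wells for no effect and antibiotic for full effect; wells of about 80 µL received 100 nL stock; the first replicate is given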
BJeLR lethal = kills HRASV12-expressing BJeLR cells | BJeLR (HRASV12) viability, CellTiter-Glo ATP luminescence, 48 h; reference of the scale not given here | inhibition, % (concentration not given with the values) | hit rate 0.17% among 300,000 | AID 1554;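 active = replicate mean above 50%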;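 note: 50 nL library stock added to about 25 µL; numbers are from one replicate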
Bead autofluor = flagged as autofluorescent in microsphere protease counterscreen. fluorescence intensity (no concentration beside the values). compound autofluorescence counterscreen, microsphere flow cytometry; active compounds read high. hit rate 3.1% among 360,000;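 active = at least 3 SD above the mean of all compounds, about 16000 in these data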;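 note: 100 nL of 1 mM stock went into each well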
RN4220 kill = kills Staphylococcus aureus RN4220. hit rate 0.33% among 330,000. AID 1259311. S. aureus RN4220 growth, OD600, 16 h. inhibition, % (test concentration not listed);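 active = z-score of -3 or lower and OD600 up to 0.18 on both plates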;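 note: plate controls were untreated cells for no effect and reference antibiotic for full effect; stock transfer was 100 nL into about 80 µL; one replicate is shown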
PrP UTR inh = inhibition of PrP 5' UTR reporter expression; cell-based PrP 5' UTR mRNA reporter, plate reader; inhibition, % (concentration not given with the values); hit rate 0.35% among 340,000; AID 488862;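 active = every replicate at 50% or more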;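 note: 0 = median of the neutral control wells; tested in H4 reporter cells; numbers are from one replicate; inactives centre near -14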
Mtb hypoxia inh = Mtb hypoxia fluorescent reporter inhibition | M. tuberculosis hypoxia-regulated fluorescent reporter, fluorescence | fluorescence inhibition, % (no concentration beside the values) | hit rate 0.1% among 300,000 | AID 1159583;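 active = 35 to 45% if threefold the growth effect, above 45% if 1.5-fold the growth effect; inactive = the rest, general growth blockers included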;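 note: wells of about 50 µL received 100 nL stock; 0% = vehicle wells and 100% = reference inhibitor wells; whole bacteria with a GFP reporter of the hypoxia response; strong numbers were not always called active; many hits fall short of the cut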
Mtb hypoxia inh growth = also measured in Mtb hypoxia inh; calls as there; growth inhibition, %; measured here: M. tuberculosis growth (absorbance);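 0% = vehicle and 100% = reference antibiotic; read after six days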
The depositor's hits bear a star; nt = no result given.

SMILES	ugtP null kill	BJeLR lethal	Bead autofluor	RN4220 kill	PrP UTR inh	Mtb hypoxia inh	Mtb hypoxia inh growth
Cc1cccc(N(CC(=O)N/N=C/c2ccc(OCC(=O)NCc3ccco3)cc2)S(C)(=O)=O)c1C	nt	2	5903	nt	-125	nt	nt
O=C(c1cccc(S(=O)(=O)N2CCCCCC2)c1)N1CCN(c2ccccc2)CC1	6	1	4203	2.5	-13	-3	4
COc1ccc(/C=C2\N=C(c3ccc(C)cc3)OC2=O)cc1	9	0	4310	1.9	-12	11	2
COc1ccc(C(=O)Nc2nc3ccc4nc(C)sc4c3s2)cc1	0	3	4200	2.4	-31	0	-1
Cc1cc(NS(=O)(=O)c2ccc(NC(=O)CCCOc3ccccc3)cc2)no1	6	1	3823	1.6	-20	nt	nt
Cc1ccc(CN2CCN(c3ccccc3Cl)CC2)o1	5	-5	3967	0.9	-19	15	8
CCOc1cc(/C=C2\SC(=O)N=C2N)ccc1O	11	9	2047	15	5	12	7
NC(=O)C1CCN(C(=O)c2ccc(NS(=O)(=O)c3ccc(Br)s3)cc2)CC1	5	nt	4630	0.4	5	4	-4
CCOC(=O)c1ccc(NC(=O)N2CCN(S(C)(=O)=O)CC2)cc1	11	3	17414*	6.1	-6	2	-1
COc1ccc(C=NNC(=O)COc2cc(C)cc(C)c2)cc1COC(C)=O	93*	nt	nt	0.0	nt	7	6
O=C(CN1C(=O)c2ccccc2C1=O)Nc1ccc(S(=O)(=O)NCC2CCCO2)cc1 (centres undefined)	1	-11	10339	4.5	0	2	-3
CNC(=O)N(O)C1N(N=Cc2cc(Br)ccc2O)C(=S)SC1(C)C (centres undefined)	18	nt	nt	8.8	nt	1	-10
Clc1ccc(-c2noc(CCCOc3ccccc3)n2)cc1	73	11	11319	7.1	-26	5	5
C=CCNC(=O)CC(=O)N/N=C/c1ccc(F)cc1	nt	7	2149	nt	-8	nt	nt
CC(NS(=O)(=O)c1ccc(F)cc1)C(=O)NCc1ccncc1 (centres undefined)	-2	10	6019	-0.6	-13	nt	nt

Results in Mtb hypoxia inh growth and Bead autofluor, for some of the entries so far:
SMILES | Mtb hypoxia inh growth | Bead autofluor
CNC(=O)N(O)C1N(N=Cc2cc(Br)ccc2O)C(=S)SC1(C)C (centres undefined) | -10 | nt
Clc1ccc(-c2noc(CCCOc3ccccc3)n2)cc1 | 5 | 11319
C=CCNC(=O)CC(=O)N/N=C/c1ccc(F)cc1 | nt | 2149
CC(NS(=O)(=O)c1ccc(F)cc1)C(=O)NCc1ccncc1 (centres undefined) | nt | 6019

Additional entries:
SMILES	ugtP null kill	BJeLR lethal	Bead autofluor	RN4220 kill	PrP UTR inh	Mtb hypoxia inh	Mtb hypoxia inh growth
CC(=O)c1cccc(N(CC(=O)NC2CCCC2)C(=O)CNC(=O)c2cccs2)c1	7	5	3763	0.9	-16	9	5
CCCSc1nnc2n(N)c(=O)c3ccccc3n12	-5	1	22548*	8.4	-10	10	8
COCCNC(=O)COc1ccc(C)c(C)c1	-1	-2	9357	6.9	-5	4	10
COc1ccc(C2c3ccc(O)cc3Oc3ncn(CCCO)c(=N)c32)cc1 (centres undefined)	10	3	3773	4.1	-14	2	-11
CN1CCC(N(C)S(=O)(=O)c2ccc(NC(=O)COc3ccc(F)cc3Cl)cc2)CC1	2	10	5570	1.0	-27	5	-3
Cc1nc2c(C)cccn2c1/C(O)=C1\C(=O)C(=O)N(CCN(C)C)C1c1ccncc1 (centres undefined)	-7	20	9115	-2.4	-11	-6	-19
CCOC(=O)c1c2c3c(cccc3n(C)c1=O)C(=O)c1ccccc1-2	nt	-15	2922	nt	-8	nt	nt
COc1ccccc1CC(=O)NCCc1ccccc1	-3	11	nt	-0.9	-4	-7	-7
CC(C)CC(NC(=O)c1[nH]cnc1C(=O)Nc1ccc(CNC(=O)OC(C)(C)C)cc1)C(=O)OC(C)(C)C (centres undefined)	6	nt	nt	2.4	nt	13	5
COc1ccccc1NC(=O)NCc1ccccc1F	6	4	2258	0.3	-28	2	-7
CC(C)(C)C(=O)Nc1nc(-c2ccccc2)ns1	1	-2	9770	19	-82	3	14
CC(=O)CCN1C(=O)NC2(CCCc3ccccc32)C1=O (centres undefined)	0	-5	5240	0.9	-13	8	-3
CCOC(=O)C1=C(N)Oc2c(c(=O)oc3ccccc23)C12C(=O)N(C)c1ccccc12 (centres undefined)	0	-4	3759	-4.4	-1	2	-4
CC(C)(C)n1nc2c(c1NC(=O)c1ccc(S(=O)(=O)N3CCCCC3)cc1)CS(=O)C2 (centres undefined)	3	nt	4600	2.9	3	nt	nt
COc1ccc(OCC(=O)NN=C2CCCCc3ccccc32)cc1	-9	nt	nt	-1.7	nt	-7	0

A different layout for part of the listing above.
CCOC(=O)c1c2c3c(cccc3n(C)c1=O)C(=O)c1ccccc1-2
  ugtP null kill: nt	BJeLR lethal: -15	Bead autofluor: 2922	RN4220 kill: nt	PrP UTR inh: -8	Mtb hypoxia inh: nt	Mtb hypoxia inh growth: nt
COc1ccccc1CC(=O)NCCc1ccccc1
  ugtP null kill: -3	BJeLR lethal: 11	Bead autofluor: nt	RN4220 kill: -0.9	PrP UTR inh: -4	Mtb hypoxia inh: -7	Mtb hypoxia inh growth: -7
CC(C)CC(NC(=O)c1[nH]cnc1C(=O)Nc1ccc(CNC(=O)OC(C)(C)C)cc1)C(=O)OC(C)(C)C (centres undefined)
  ugtP null kill: 6	BJeLR lethal: nt	Bead autofluor: nt	RN4220 kill: 2.4	PrP UTR inh: nt	Mtb hypoxia inh: 13	Mtb hypoxia inh growth: 5
COc1ccccc1NC(=O)NCc1ccccc1F
  ugtP null kill: 6	BJeLR lethal: 4	Bead autofluor: 2258	RN4220 kill: 0.3	PrP UTR inh: -28	Mtb hypoxia inh: 2	Mtb hypoxia inh growth: -7

Going on with the list.
SMILES	ugtP null kill	BJeLR lethal	Bead autofluor	RN4220 kill	PrP UTR inh	Mtb hypoxia inh	Mtb hypoxia inh growth
CCCCCNC(=O)c1c[nH]c2ccc(S(=O)(=O)N3CCC4(CC3)OCCO4)cc2c1=O	11	7	2040	4.2	-13	11	-13
CC(C)COc1ccc(C(=O)NC(=S)Nc2ccc(CN3CCOCC3)cc2)cc1	4	-1	2059	7.1	-12	nt	nt
O=c1cc(CO)oc(C(Nc2ccccn2)c2ccccc2Cl)c1O (centres undefined)	5	-14	3222	6.8	-9	4	3
CC1CN(C(=O)CN2C(=O)NC3(CCCCCC3)C2=O)CC(C)O1 (centres undefined)	-1	11	24732*	1.1	-8	3	-2
CCOc1ccc(C2C(C#N)=C(N)Oc3nc[nH]c(=O)c32)cc1 (centres undefined)	5	-20	3448	8.3	-1	-1	0
Cc1ccc(S(=O)(=O)N2CCN(C(=O)COC(=O)CCOc3cc(C)ccc3C)CC2)c(C)c1	-2	nt	3077	2.6	-1	14	8
O=C(O)CNC(=S)N(Cc1ccccc1)Cc1cccs1	7	nt	4399	-0.2	39	7	12
COc1ccc(C2NCCc3c2[nH]c2ccccc32)cc1CSc1nc2ccccc2s1 (centres undefined)	15	16	2575	55	-16	8	0
CC(=O)NC(CC(=O)Nc1cccc(S(=O)(=O)N2CCOCC2)c1)c1ccccc1 (centres undefined)	6	nt	5784	1.9	-19	9	-9
COc1ccccc1-n1cnnc1SCC(=O)Nc1cc(C)on1	2	-13	2719	1.0	-9	13	4
COc1ccc(-c2cc(C)no2)cc1S(=O)(=O)N1CCOc2ccc(Cl)cc21	4	-6	5284	7.5	-13	11	1
NC(CO)c1cn(C(CCC(=O)O)C(=O)N2CCNCC2)nn1 (centres undefined)	-5	nt	nt	6.6	nt	10	9
Cn1c(N)c(C(=O)COC(=O)CSc2ccccc2)c(=O)n(C)c1=O	2	7	2084	5.6	13	1	2
Cn1cnnc1SCC(=O)NCCc1ccccc1	-8	-5	23752*	-3.9	-1	-6	-6
CC(C)CC(=O)Nc1ccc(C(=O)Cn2nc(C(=O)O)c3ccccc3c2=O)cc1	3	5	2464	-11	-10	10	2

Record cards (already shown).
CC1CN(C(=O)CN2C(=O)NC3(CCCCCC3)C2=O)CC(C)O1 (centres undefined) is listed as ugtP null kill: -1; BJeLR lethal: 11; Bead autofluor: 24732*; RN4220 kill: 1.1; PrP UTR inh: -8; Mtb hypoxia inh: 3; Mtb hypoxia inh growth: -2
COc1ccc(-c2cc(C)no2)cc1S(=O)(=O)N1CCOc2ccc(Cl)cc21 is listed as ugtP null kill: 4; BJeLR lethal: -6; Bead autofluor: 5284; RN4220 kill: 7.5; PrP UTR inh: -13; Mtb hypoxia inh: 11; Mtb hypoxia inh growth: 1
COc1ccccc1-n1cnnc1SCC(=O)Nc1cc(C)on1 is listed as ugtP null kill: 2; BJeLR lethal: -13; Bead autofluor: 2719; RN4220 kill: 1.0; PrP UTR inh: -9; Mtb hypoxia inh: 13; Mtb hypoxia inh growth: 4

(list continues)
SMILES	ugtP null kill	BJeLR lethal	Bead autofluor	RN4220 kill	PrP UTR inh	Mtb hypoxia inh	Mtb hypoxia inh growth
Cc1cc(C(=O)N/N=C\c2cc(C(C)(C)C)ccc2O)n[nH]1	nt	4	5835	nt	31	nt	nt
CC(C)(C)n1ncc2c(=O)n(CC(=O)Nc3ccc4c(c3)OCO4)cnc21	0	12	3146	-5.6	8	1	3
COc1cc(S(=O)(=O)NCc2ccc3c(c2)OCO3)ccc1Cl	3	-9	9875	5.8	-16	14	2
CCNC(=O)c1c(C)nc2ccccn12	-4	-7	3134	-12	-10	8	8
CC(=O)Oc1c(S(=O)(=O)c2ccccc2)c(C)nn1C(C)(C)C	0	-10	9517	5.1	-93	9	5
COC1C=CC(CNC(=O)c2cc3c(=O)n4cccc(C)c4nc3n2C)(OC)O1 (centres undefined)	3	-1	2480	-0.8	-7	15	6
Cc1cccc(C)c1NC(=O)NC1(C(=O)N2CCN3CCCC3C2)CCCCC1 (centres undefined)	3	0	4055	0.8	-13	-6	-1
CCc1ccc(C(=O)OCC(=O)N(CC)c2c(N)n(Cc3ccccc3)c(=O)[nH]c2=O)cc1	-3	nt	4008	3.1	-3	14	7
O=C(OC1CCOC1=O)c1cccc(S(=O)(=O)N2CCc3ccccc3C2)c1 (centres undefined)	4	0	4555	3.6	-4	2	0
Cc1ccccc1COc1ccc(C=NNC(=O)c2nnn(-c3nonc3N)c2CN2CCC(C)CC2)cc1	11	nt	nt	-0.6	nt	3	9
Nc1nonc1-n1nnc(C(=O)N/N=C/c2ccccc2)c1CN1CCc2ccccc21	nt	0	4201	nt	-13	nt	nt
CC12CCC(C(S(=O)(=O)Nc3ccccc3)C1=O)C2(C)C (centres undefined)	3	nt	3485	5.1	-12	20	11
Cc1ccc(-c2nnc(SCC(=O)NN=Cc3ccc(C)s3)n2-c2ccccc2)cc1	0	nt	nt	5.7	nt	4	2
N#Cc1ccccc1NC(=O)c1ccccc1OCC(=O)NCc1ccco1	-8	6	15419	1.4	-17	-2	4
CCOc1ccc(CCNC(=O)c2cccc(NC3=NC4CS(=O)(=O)CC4S3)c2)cc1 (centres undefined)	-4	-3	3917	-11	12	-3	8
COc1ccc(CN(C)C(=O)Cn2ccc(NC(=O)OCc3ccccc3)nc2=O)cc1OC	1	nt	3171	-4.3	-11	3	-7
COc1cc(-c2nc(-c3cccc(C(F)(F)F)c3)no2)cc(OC)c1OC	32	7	10234	5.2	-24	5	2
Cc1ccc(-n2ncc(C#N)c2/N=C/N2CCCCCC2)cc1	nt	11	4032	nt	-5	nt	nt
Cc1noc(C)c1COc1ccc(C(=O)OC(C)C(=O)Nc2ccc(N3CCOCC3)cc2)cc1 (centres undefined)	12	4	3507	3.6	-7	-5	-6
COc1cc(O)c(C(CCN2CCCC(C)C2)c2ccc(N(C)C)cc2)c(OC)c1 (centres undefined)	13	-4	3469	7.1	-23	-6	-1
CC12CN3CN(C1)CC(C)(C3)C2=NO	4	-9	10937	-1.6	-27	0	1
COc1ccc(CSc2nc3nc(C)cc(C)n3n2)cc1F	3	0	3447	0.8	-17	10	1
c1ccc2c(c1)ccc1nnc(SCc3ccc4c(c3)OCO4)n12	-1	10	4250	5.7	1	5	1
